Source: PubChem (several laboratories)
eIF4H inh: inhibitors of RNA binding by human eIF4H. actives 0.94% (n = 290,000). Q15056. inhibition, % at 35 µM. AID 2012. eIF4H fluorescence polarization binding assay;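 active means 50% or more with normal probe brightness, or confirmed in later tests; inconclusive means above 50% with abnormal brightness, or retests that disagree; inactive means below 50% or failed in later tests; about a fifth of its hits are not listed in these tables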;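 further: calls also rest on retests at 20 µM and on dose response follow-up; 0% = protein and probe with vehicle and 100% = probe without protein; strong numbers were not always called active; many hits fall short of the cut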
CSC inhib: cancer stem cell inhibition. cancer stem cell-like cells viability, luminescence. actives 1.1% (n = 300,000). inhibition, % at 7.5 µM. AID 2717;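 active means mean at 75% or more and at least half the replicates too; inconclusive means mean and replicates disagree; tested in HMLE shEcad cells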;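 further: 0% = median of negative and 100% = median of positive control wells; the first replicate is given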
Yeast UUG start: alters start codon recognition fidelity in yeast; S. cerevisiae UUG-firefly luciferase reporter, luminescence/redox ratio; activity score, % at 18.7 µM; actives 0.13% (n = 350,000); AID 602363;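 active means replicate mean at a twofold rise or more, about +100% in these data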;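 further: firefly luciferase made from a UUG start codon reports start codon fidelity; reporter light over untreated wells divided by growth signal over untreated wells; some hits fall short of that in this replicate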
Rce1 inh: yeast Ras-converting enzyme inhibition; AID 2563; actives 0.27% (n = 290,000); calls only; yeast membranes, quenched prenylated peptide cleavage fluorescence;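 active means fall in fluorescence gain of 50% or more versus controls, with final raw signal at or below 3038400; inconclusive means same 50% fall but final raw signal above 3038400; inactive means fall in fluorescence gain under 50%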;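 further: plate controls were neutral control wells for no effect and wells lacking membranes for full effect; tested at 10 µM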
Env fusion inh: inhibitors of HIV Env-mediated cell fusion. HeLa-JRFL Env/CEM21 cell fusion, luciferase. inhibition, % at 12.3 µM. actives 1.1% (n = 360,000). AID 651610;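 active means mean replicate inhibition score of at least 50 and every replicate individually at or above 50; inconclusive means only one of the two criteria met; inactive means mean below 50 and not all replicates reaching 50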;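 further: 0% = plate neutral controls and 100% = maraviroc near 300 nM; one replicate is shown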
PABP polyA inh: PABP-poly(A) binding inhibition | P11940 | PABP-poly(A) RNA binding, fluorescence polarization | inhibition, % at 35 µM | actives 1% (n = 290,000);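 active means 50% or more with normal probe brightness, or confirmed in later tests; inconclusive means above 50% with abnormal brightness, or retests that disagree; inactive means below 50% or failed in later tests; about a fifth of its hits are not listed in these tables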;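 further: calls also rest on retests at 20 µM and on dose response follow-up; controls were probe without protein and protein plus probe with vehicle; some compounds called inactive have numbers as strong as hits; many hits fall short of the cut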
Target sequence (P11940 whole entry, looked up): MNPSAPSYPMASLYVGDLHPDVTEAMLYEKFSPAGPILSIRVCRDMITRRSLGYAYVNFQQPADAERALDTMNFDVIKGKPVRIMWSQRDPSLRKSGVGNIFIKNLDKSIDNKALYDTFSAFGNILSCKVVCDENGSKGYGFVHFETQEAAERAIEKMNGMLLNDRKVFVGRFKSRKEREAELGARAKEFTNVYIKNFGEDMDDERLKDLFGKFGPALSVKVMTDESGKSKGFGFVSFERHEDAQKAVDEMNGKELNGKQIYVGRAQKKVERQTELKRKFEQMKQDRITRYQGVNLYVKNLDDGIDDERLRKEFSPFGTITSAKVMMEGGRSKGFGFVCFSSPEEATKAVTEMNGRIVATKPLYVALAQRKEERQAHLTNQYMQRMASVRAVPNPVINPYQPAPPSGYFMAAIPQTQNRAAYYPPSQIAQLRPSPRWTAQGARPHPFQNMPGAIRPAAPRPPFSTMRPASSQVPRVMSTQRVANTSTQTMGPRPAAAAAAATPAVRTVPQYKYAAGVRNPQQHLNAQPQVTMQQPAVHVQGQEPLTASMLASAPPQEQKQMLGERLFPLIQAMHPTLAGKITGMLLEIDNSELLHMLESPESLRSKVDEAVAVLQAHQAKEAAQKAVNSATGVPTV
MT1-MMP act inh: blocks activation of human MT1-MMP | HT1080 RFP-PRO-GFP cells, GFP/RFP ratio fluorescence, overnight; percent of plate control window, DMSO zero | GFP/RFP ratio change, % at 20 µM | actives 0.061% (n = 360,000);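 active means GFP/RFP ratio change of at least 30% with cell ATP level not reduced by more than half and red fluorescence within 50% of control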; further: strong numbers were not always called active
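Assay system – RFP-PRO-GFP reporter HT1080 cells · Compound dosing – single dose of 20 µM compound, 1% DMSO final · Incubation – overnight compound exposure at 37 °C · Measure – GFP/RFP fluorescence ratio · Benchmarks – DMSO wells and RFP-L50D-GFP cells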
eIF4H inh retest: recorded beside eIF4H inh, whose call it bears; inhibition, %; compound at 20 µM; confirmation average;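 mean of two retest wells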
PABP polyA inh retest: further read-out of PABP polyA inh, marked with its call; inhibition, %; compound at 20 µM; confirmation repeats;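 mean of two retest wells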
MT1-MMP act inh RFP: recorded beside MT1-MMP act inh, whose call it bears; RFP signal change, %; measured here: RFP expression control read;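 0 = vehicle wells; hits needed this value within 50% of zero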
The depositor's hits bear a star; i = inactive; ? = inconclusive; nt = no result given; & = joins results of further samples.

SMILES	eIF4H inh	CSC inhib	Yeast UUG start	Rce1 inh	Env fusion inh	PABP polyA inh	MT1-MMP act inh	MT1-MMP act inh RFP	others
CNc1nnc(-c2ccc(N(C)C)cc2)s1	-1	12	-55	nt	-107	-7	6	3
COc1cccc(S(=O)(=O)N(C)C[C@@H]2Oc3cc(C#CCN(C)C)ccc3S(=O)(=O)N([C@H](C)CO)C[C@@H]2C)c1	nt	nt	-2&2&14	nt	23	nt	-1	3
COc1cc(C2CC(=O)Nc3c2c(=O)nc2c(C)cccn32)cc(OC)c1OC (stereo not given)	-3	-6	nt	i	12	-8	3	6
Cc1ccc(S(=O)(=O)N2CCN(S(=O)(=O)N3CCC(C)CC3)CC2)c(C)c1	-15	-2	-7	nt	18	7	3	-2
O=C(CSc1nnc(NC(=O)C2CC2)s1)Nc1ccc2c(c1)OCCO2	-9	5	nt	i	-36	-9	0	2
CCOC(=O)CSc1nnc(NC(=O)CCc2ccccc2)s1	-8	8	-14	i	0	-2	-3	0
COc1cccc(OCc2cc(C(=O)N3CCN(C(=O)c4ccco4)CC3)no2)c1	-8	-4	-9	i	-38	-4	3	0
CCCc1nnc(SCC(=O)N2CCOCC2)n1CCCOC	-9	-1	-10	nt	nt	-9	-5	-3
Cc1ccc(C(c2nnnn2Cc2cccs2)N2CCN(Cc3ccc4c(c3)OCO4)CC2)cc1 (stereo not given)	-8	36	-19	i	nt	-7	-9	-18
CC(=O)O[C@H]1C(=O)[C@@]2(C)[C@H]([C@H](OC(=O)c3ccccc3)[C@]3(O)C[C@H](OC(=O)[C@H](O)C(NC(=O)c4ccccc4)c4ccccc4)C(C)=C1C3(C)C)[C@]1(OC(C)=O)CO[C@@H]1C[C@@H]2O (stereo not given in full)	-5	?	-6&1	i	nt	-5	-9	-15
COc1ccc(NC(=O)/C=C/c2ccccc2)cn1	48	-1	5	i	-332	-8	2	4
COc1ccc(OC2C(=O)N(CCc3ccc(OC)c(OC)c3)C2c2ccc3c(c2)OCO3)cc1 (stereo not given)	-9	-15	-11	i	nt	2	2	-8
COc1cccc2[nH]c3c(N4CCC(C(N)=O)CC4)ncnc3c12	-4	-1	nt	?	-7	7	18	1
O=C(Nc1nnc(C2CCCCC2)s1)C1CC(=O)N(c2ccccc2)C1 (stereo not given)	-3	4	-8	i	11	-6	1	0
Cn1c(C(=O)N2CCc3ccccc3C2)cc2c(=O)n3ccccc3nc21	4	2	-8	i	-3	-2	-4	1
COc1ccc(N=Nc2ccc(CO)cc2)cc1	nt	-3	-40	i	-159	nt	5	-6
CC(OC(=O)c1nc(Cl)ccc1Cl)C(=O)Nc1ccccc1F (stereo not given)	nt	1	-13	i	-8	nt	0	0
CC1(C(=O)N(CC(=O)NC2CCCC2)C2CCCC2)CC(=O)N=C2C=CC=CN21 (stereo not given)	-1	-1	-34	i	-30	15	0	2
S=C(Nc1ccc(Cl)cc1)NC1CC2CCCC(C1)N2C1CC1 (stereo not given)	-4	-14	-15	i	nt	10	-4	2
CCCCn1c(N)c(N(CCC(C)C)C(=O)c2ccc([N+](=O)[O-])o2)c(=O)[nH]c1=O	34	15	-11	i	nt	30	-37	4
O=C(O)CN1C(=O)c2cccc(Oc3ccc(Cl)cc3)c2C1=O	-9	-4	-14	i	-43	13	0	5
CCN1/C(=C\C(C)=O)Sc2ccc(OC)cc21	-11	nt	-5	i	nt	38	-4	0
CCNc1nc(NOC)nc(OCC#N)n1	-4	-9	nt	i	1	13	4	3
Cc1cccc(NC(=O)C(=O)C2C(=O)Nc3ccccc32)c1 (stereo not given)	-6	-16	-11	i	3	1	-2	4
COc1ccc(C)cc1NS(=O)(=O)c1ccc(-c2cnc(C3CC3)o2)cc1	-9	nt	-7	i	-270	3	4	-19
New compounds follow.
SMILES	eIF4H inh	CSC inhib	Yeast UUG start	Rce1 inh	Env fusion inh	PABP polyA inh	MT1-MMP act inh	MT1-MMP act inh RFP	others
OC1C=CSc2nc3ccccc3n21 (stereo not given)	1	3	-16	i	nt	-5	6	4
O=[N+]([O-])c1ccc(S(=O)(=O)N2CCN(C3CCN(Cc4ccccc4)CC3)CC2)cc1	-2	40	7	i	13	4	0	-1
O=C(O)C1Oc2cc3ccccc3cc2O1	16	13	-6	i	7	6	-3	1
COc1ccc(OC)c(CN2CCC(CO)(CCOc3ccccc3)CC2)c1	-9	2	-17	i	7	-3	2	4
Cc1cccc(N2CC(C(=O)Nc3nnc(SCCC4OCCO4)s3)CC2=O)c1 (stereo not given)	43	-4	-3	i	17	14	1	4
Cc1cc(C)cc(C(=O)NC(CC(N)=O)c2ccc(NCCN3CCOCC3)c([N+](=O)[O-])c2)c1 (stereo not given)	-11	3	-5	i	19	9	5	1
O=[N+]([O-])c1ccc2nc(-c3ccc(Cl)cc3)[nH]c2c1	-5	22	nt	i	-103	2	-6	-18
N#CCSc1nnc(C2CCCCC2)n1-c1ccccc1	-6	50	nt	i	-2	-6	-4	-2
O=C(O)COc1ccccc1/C=N/NC(=O)COc1ccc(-c2ccccc2)cc1	-4	nt	-23	i	4	9	7	0
O=C(NCc1ccccc1CN1CCCC1)c1cccc(S(=O)(=O)Nc2ccc(F)cc2)c1	nt	nt	-4	nt	18	nt	4	0
CSc1nc2nc(C)cc(-c3ccccc3)n2n1	1	-1	-26	i	nt	-4	2	2
CCn1c(CNc2ccc(Cl)cc2)nnc1SCC(=O)NCc1ccccc1	-2	4	-10	i	-82	-6	8	2
Cc1ccc(NC(=O)NC(=O)CN2C(=O)NC3(CCCCCCC3)C2=O)c(C)c1	3	-2	-27	i	nt	10	-3	-5
COC(=O)/C=C/C(=O)N1CCN(c2cccc(Cl)c2)CC1	-6	12	nt	i	nt	0	nt	nt
CSc1nc2ccc(NC(=O)c3ccccn3)cc2s1	-2	46	-31	i	-156	-2	3	0
Cc1ccc(C2=[N+]([O-])C3(CCCCC3=O)N(O)C2(C)C)cc1 (stereo not given)	1	-1	-37	i	-140	0	-1	-1
Cc1cccn2c(CNCC3(c4ccccc4)CCCC3)c(C(=O)N3CCOCC3)nc12	-4	30	nt	i	-2	-7	-14	-4
O=C(CCN=C1NS(=O)(=O)c2ccccc21)OCc1c(F)c(F)c(F)c(F)c1F	nt	nt	2	nt	6	nt	-2	0
Cc1noc(C)c1C(=O)N1CCN(c2cccc(Cl)c2)CC1	-11	-8	-7	i	16	-5	0	0
CSc1ncccc1C(=O)OC(C)C(=O)Nc1cccc(S(=O)(=O)N2CCOCC2)c1 (stereo not given)	nt	nt	-1	nt	3	nt	8	3
CC(C)c1cccc(C(C)C)c1NC(=O)c1ccc(OCC(=O)NCc2ccccc2)cc1	-3	-7	nt	i	nt	2	nt	nt
c1ccc(-c2nnnc3ccccc23)cc1	7	nt	-16	i	nt	-8	1	6
CC(C)C(OC(=O)c1nsc(Cl)c1Cl)C(=O)NC(C)(C)C (stereo not given)	-5	-4	nt	i	2	-9	4	9
CCCN1CN(c2ccccc2)C(=S)N(c2ccccc2)C1	-13	-11	-19	i	-4	-6	0	-5
CCOc1ccccc1OCCCC(=O)N(C)CC(=O)Nc1cc(C)ccc1C	-2	-7	2	i	42	-2	3	1
Other compounds:
SMILES	eIF4H inh	CSC inhib	Yeast UUG start	Rce1 inh	Env fusion inh	PABP polyA inh	MT1-MMP act inh	MT1-MMP act inh RFP	others
COc1cccc(NC(=O)c2cc(OC)c(OC)c(OC)c2Br)c1	3	-8	nt	i	-6	-6	-2	-3
NC(=O)c1c(NC(=O)CN2C(=O)CCC2=O)sc2c1CCCCC2	-9	-10	-7	i	11	-1	1	4
CC(CN1CCCC1)OC(=O)c1ccc(Cl)cc1 (stereo not given)	-18	-10	-15	i	-1	12	1	1
COc1cc(C2N(C)CCC3(OCCO3)C2(C)C)cc(OC)c1OC (stereo not given)	-9	-9	0	i	-30	-5	4	0
CCCCn1c(N)c(N(CCOC)C(=O)Cn2c(=O)cnc3ccccc32)c(=O)[nH]c1=O	nt	nt	-5	nt	17	nt	-2	4
CCN(CC1COc2ccccc2O1)C(=S)Nc1ccccc1 (stereo not given)	0	-2	-15	i	-45	6	3	2
N#Cc1nc(COc2ccc(Br)cc2)oc1NCCN1CCOCC1	-12	nt	-13	i	11	2	6	2
CCC(C(=O)Nc1ccon1)c1ccccc1 (stereo not given)	-4	8	-9	i	-3	-9	-2	1
Cn1c(Cn2nnc3ccccc32)nnc1SCC(=O)c1ccc(F)cc1	1	-7	-18	i	nt	66	-13	-2	eIF4H inh retest=-1;PABP polyA inh retest=12
COc1c(Cl)cnn(-c2ccc(Cl)c(Cl)c2)c1=O	-3	11	-6	i	-3	-10	4	7
Cc1ccccc1NC(=O)N1CCN(c2ncccn2)CC1	3	11	nt	i	-5	6	-1	3
CC1CCC(NC(=O)C2CCN(C(=O)Nc3ccccc3)CC2)CC1 (stereo not given)	nt	-3	-30	nt	nt	nt	-1	-3
CCCCNC(=O)CN1C(=O)NC2(CCCc3ccccc32)C1=O (stereo not given)	-1	-12	-4	i	-17	-7	-1	6
COc1ccc(NC(=O)CNC(=O)Cn2c(C)cc3ccccc3c2=O)cc1OC	-10	7	nt	i	9	13	0	-16
Cc1cc(/C=C(\C#N)C(=O)OCC(=O)N(C)c2c(N)n(Cc3ccccc3)c(=O)[nH]c2=O)c(C)n1CC(C)C	nt	nt	-6	nt	40	nt	1	1
Cc1cccc(N2CCN(c3ccc(NC(=O)/C=C\C(=O)O)cc3)CC2)c1	13	-5	nt	i	9	12	4	6
Cc1ccccc1-c1noc(N)c1C#N	6	13	-12	i	20	14	-7	6
COC(=O)c1nc2ccc(C)cn2c1F	2	-8	-15	i	-6	-1	1	3
Cc1noc(C)c1C(=O)NCCc1c(C)[nH]c2ccccc12	-6	-11	8	i	9	-7	0	3

Ordered by heavy-atom count (high to low): part of the list above.
SMILES	eIF4H inh	CSC inhib	Yeast UUG start	Rce1 inh	Env fusion inh	PABP polyA inh	MT1-MMP act inh	MT1-MMP act inh RFP	others
Cc1cc(/C=C(\C#N)C(=O)OCC(=O)N(C)c2c(N)n(Cc3ccccc3)c(=O)[nH]c2=O)c(C)n1CC(C)C	nt	nt	-6	nt	40	nt	1	1
CCCCn1c(N)c(N(CCOC)C(=O)Cn2c(=O)cnc3ccccc32)c(=O)[nH]c1=O	nt	nt	-5	nt	17	nt	-2	4
COc1ccc(NC(=O)CNC(=O)Cn2c(C)cc3ccccc3c2=O)cc1OC	-10	7	nt	i	9	13	0	-16
Cn1c(Cn2nnc3ccccc32)nnc1SCC(=O)c1ccc(F)cc1	1	-7	-18	i	nt	66	-13	-2	eIF4H inh retest=-1;PABP polyA inh retest=12
COc1cc(C2N(C)CCC3(OCCO3)C2(C)C)cc(OC)c1OC (stereo not given)	-9	-9	0	i	-30	-5	4	0
NC(=O)c1c(NC(=O)CN2C(=O)CCC2=O)sc2c1CCCCC2	-9	-10	-7	i	11	-1	1	4
CCN(CC1COc2ccccc2O1)C(=S)Nc1ccccc1 (stereo not given)	0	-2	-15	i	-45	6	3	2
Cc1noc(C)c1C(=O)NCCc1c(C)[nH]c2ccccc12	-6	-11	8	i	9	-7	0	3
CC(CN1CCCC1)OC(=O)c1ccc(Cl)cc1 (stereo not given)	-18	-10	-15	i	-1	12	1	1
CCC(C(=O)Nc1ccon1)c1ccccc1 (stereo not given)	-4	8	-9	i	-3	-9	-2	1
COC(=O)c1nc2ccc(C)cn2c1F	2	-8	-15	i	-6	-1	1	3
